Bioassay records deposited in PubChem BioAssay by National Center for Advancing Translational Sciences (NCATS).
SARS PLP yeast = qHTS of Yeast-based Assay for SARS-CoV PLP; S. cerevisiae expressing SARS-CoV PLpro, growth rescue; control for the full effect not named in the record; Potency, µM (top dose mostly 32.9 µM), without a hit: top-dose activity, positive = growth rescue; 330,000 tested, 0.19% active; further: 0% is about no effect; nearly all actives have a fitted effect of over 55% in size; growth read by luminescence after 48 h
NS1 inh = qHTS Assay for Inhibitors of Influenza NS1 Protein Function; S. cerevisiae slowed by influenza A NS1, growth recovery by OD600; Potency, µM (titrated, usually from 46.1 µM), for the others: at the top dose activity, positive = more growth; 270,000 tested, 0.4% active; further: actives are rising curves; nearly all actives have a fitted effect of over 50% in size
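In this qHTS, NS1 from influenza A is expressed in budding yeast, where it slows growth. Cells are switched from glucose to 2% galactose medium (pH 6.0, -URA), treated with compound, and growth recovery is read at OD600.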
RE007 growth inh = qHTS Assay for Inhibitors of the HIV-1 protein Vpr; S. pombe RE007 Vpr strain, BacTiter-Glo ATP luminescence, 24 h; control for the full effect not named in the record; Potency, µM (titrated, usually from 92.2 µM), for inactives: at the top dose activity change, negative = less growth; 360,000 tested, 0.21% active; active = well fitted falling curve with a large enough effect; inconclusive = small, poorly fitted or top-dose-only effect; inactive = no such curve, though single readings can be large or run the other way;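 further: on the % scale 0 is the no-effect control and ±100 the full control effect; nearly all actives have a fitted effect of over 50% in size; the assay follows cell death caused by Vpr and the record does not say whether a fall means rescue or toxicity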
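Fission yeast strain RE007, carrying one chromosomally integrated HIV-1 vpr copy, was seeded at OD 0.01 in PMG+AL medium with 23 nL pinned compound. After 24 h at 30 °C and 99% humidity, viability was read by BacTiter-Glo luminescence.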
Cruzain noTriton = qHTS Assay for Promiscuous and Specific Inhibitors of Cruzain (without detergent) | Cruzipain (Trypanosoma cruzi), P25779 | purified cruzain, Z-FR-AMC fluorescence, no detergent | Potency, µM, for the others: max response, negative = inhibition, most hits filed as inhibitors | 200,000 tested, 2.3% active | AID 1476, 2009; active means well fitted curve in the direction sought with a large enough effect; inconclusive means small, poorly fitted or top-dose-only effect, or another doubt; inactive means no such curve, though single readings can be large; an effect the other way counts as inactive or inconclusive;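 further: plate controls were enzyme without inhibitor for no effect and buffer without enzyme for full effect; nearly all actives have a fitted effect of over 40% in size; top concentration of the series not given in the record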
Target sequence (P25779 123-467 limits assumed): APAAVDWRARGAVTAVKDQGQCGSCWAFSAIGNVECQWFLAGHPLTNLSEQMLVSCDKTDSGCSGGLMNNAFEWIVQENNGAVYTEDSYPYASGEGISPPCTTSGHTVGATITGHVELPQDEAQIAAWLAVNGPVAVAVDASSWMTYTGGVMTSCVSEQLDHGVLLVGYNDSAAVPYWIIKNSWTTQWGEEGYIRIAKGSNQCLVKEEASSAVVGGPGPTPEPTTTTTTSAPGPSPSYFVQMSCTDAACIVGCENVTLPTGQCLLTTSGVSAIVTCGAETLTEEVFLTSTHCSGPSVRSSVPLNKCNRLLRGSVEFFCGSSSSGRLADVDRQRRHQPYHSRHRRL
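Purified cruzain at 1.5 nM, pre-incubated 15 min with compound at room temperature in 100 mM sodium acetate pH 5.5, 5 mM DTT, 0.00005% Triton X-100. Reaction started with 2 uM Z-FR-AMC; AMC fluorescence increase over 60 s gives rate.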
2A StopGo = High Throughput Screening for Foot and Mouth Disease Virus Antivirals | human cells with a luciferase reporter of 2A StopGo recoding; control for the full effect not named in the record | Potency, µM (series often up to 57.9 µM), without a hit: at the top dose signal change, negative = less light | 410,000 tested, 1.2% active | AID 1159524, 2015; active = well fitted falling curve with a large enough effect; inconclusive = small, poorly fitted or top-dose-only effect; inactive = no such curve, though single readings can be large or run the other way; tested in HEK293T cells; further: on the % scale 0 is the no-effect control and ±100 the full control effect; nearly all actives have a fitted effect of over 45% in size; luciferase light after 4 h
Cruzain inh Det = qHTS Assay for Promiscuous and Specific Inhibitors of Cruzain (with detergent); 200,000 tested, 0.43% active; purified cruzain, Z-FR-AMC fluorescence, 0.01% Triton; AID 1478, 2009; Potency, µM, for the others: max response, negative = inhibition, actives largely listed as inhibitors; Cruzipain (Trypanosoma cruzi), P25779; active means well fitted curve in the direction sought with a large enough effect; inconclusive means small, poorly fitted or top-dose-only effect, or another doubt; inactive means no such curve, though single readings can be large; an effect the other way counts as inactive or inconclusive;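 further: plate controls were neutral wells for no effect and buffer without enzyme for full effect; nearly all actives have a fitted effect of over 40% in size; top concentration of the series not given in the record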
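Sodium acetate buffer (100 mM, pH 5.5) containing 5 mM DTT and 0.01% Triton X-100 hosted 1.5 nM cruzain and test compound for 15 min at room temperature. Cleavage of 2 uM Z-FR-AMC was then tracked by fluorescence.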
Marburg entry inh = qHTS for inhibitors of binding or entry into cells for Marburg Virus; AID 540276, 2011; Marburg virus pseudotyped entry inhibition, cell reporter; control for the full effect not named in the record; about a third of the inactives were read at about 46 µM; Potency, µM (series often up to 37.8 µM), for the others: at the top dose activity change, negative = inhibition, hits mostly inhibitors; 300,000 tested, 1.8% active; active = well fitted inhibition curve with a large enough effect; inconclusive = small, poorly fitted or top-dose-only effect, or effect the other way; inactive = flat fitted curve, though single readings scatter; tested in HEK293 cells; about a fifth of its hits are not listed in these tables; further: on the % scale 0 is the no-effect control and ±100 the full control effect; luciferase read-out
Lassa entry inh = qHTS for Inhibitors of binding or entry into cells for Lassa Virus | AID 540256, 2011 | 300,000 tested, 1.2% active | Potency, µM (top dose mostly 37.9 µM), inactives show at the highest dose activity change, negative = inhibition, usual class: inhibitors | Lassa virus pseudotype entry inhibition, cell reporter; control for the full effect not named in the record; active means well fitted inhibition curve with a large enough effect; inconclusive means small, poorly fitted or top-dose-only effect, or effect the other way; inactive means flat fitted curve, though single readings scatter; tested in HEK293 cells; further: on the % scale 0 is the no-effect control and ±100 the full control effect; nearly all actives have a fitted effect of over 50% in size; luciferase read-out
Starred values were filed as active, the others as inactive; ? = inconclusive; · = not tested or not shown; & = joins results of further samples; [ ] = dose if it differs, or a comment. Unless noted, the call rests on the fitted dose curve; in most records, active means well fitted rising curve with a large enough effect; inconclusive means small, poorly fitted or top-dose-only effect; inactive means no such curve, though single readings can be large or run the other way. Potency means the concentration at half of the fitted maximal effect.

molecule	SARS PLP yeast	NS1 inh	RE007 growth inh	Cruzain noTriton	2A StopGo	Cruzain inh Det	Marburg entry inh	Lassa entry inh
O=C(N/N=C/c1ccc[nH]1)c1ccc(O)cc1	-1%	3%	7%	·	25%	·	?	?
CCCCOc1ccc(C(O)(CCN2CCOCC2)c2ccccc2)cc1 (configuration not stated)	-2%	-1%	-5%	·	-4%	·	·	·
CN(Cc1ccccc1)C(=O)CCNC(=O)Cn1cnc2ccccc2c1=O	6%	-8%	10%	4%	5%	6.1%	3%[46.1 µM]	-1%
Cc1ccc(OCC(O)Cn2c(=N)n(CCN3CCOCC3)c3ccccc32)cc1 (configuration not stated)	2%	-2%	3%	15%	-9%	7.0%	?	0%
COc1cc(/C=N/NC2=NC(C)(C)Cc3ccccc32)cc(OC)c1OC	-2%	-4%	-13%	·	-13%	·	5%[46.1 µM]	-22%
COc1ccc(CN=C(N)N=C(N)N)cc1Cl	-3%	·	-12%	·	-8%	·	-17%[14.2 µM]	?
O=C(CC1SC(N2CCCCC2)=NC1=O)Nc1ccc(C(=O)NCc2ccccc2)cc1 (configuration not stated)	-1%	·	-11%	·	14%	·	4%	?
COc1ccccc1/C=C/C=N/NC(=O)Cc1cccn1C	-2%	18%	-27%	-24%	26%	-8.9%	?	7%
C=CCn1c(/N=C/c2ccc3c(c2)OCO3)nc2ccccc21	9%	4%	-17%	-8%	·	-7.1%	?	14%
CCN(CC)C(=O)CSC(=Nc1ccccc1F)NC#N	1%	-9%	-4%	-5%	0%	-2.0%	4%	-26%
O=C(N/N=C/C=C/c1ccco1)C(O)c1ccccc1 (configuration not stated)	·	·	3%	·	52%[activator]	·	3%	1%
OC(CNC1CCCCC1)CN1CCN(CC(O)CNC2CCCCC2)CC1 (configuration not stated)	3%	2%	·	6%	·	3.0%	-2%	·
Cc1cccc(C(=O)OCC(=O)NC2CC2)c1O	-7%	·	-1%	·	21%	·	-1%[46.1 µM]	?
CCOc1ccc(S(=O)(=O)N2CCOCC2)cc1NC(=O)CCOc1ccc(C(C)(C)C)cc1	0%	·	27%	·	-8%	·	6%	?
CCOC(=O)c1c(C)n(-c2ccccc2)c2ccc(OC(=O)c3ccccc3NC(=O)C(C)C)cc12	·	·	·	-20%	32µM*	-2.2%	·	-17%[46.1 µM]
C=CCn1c(CCC(O)COCCC)n[nH]c1=S (configuration not stated)	0%	1%	-5%	·	·	·	10%[46.1 µM]	-11%
Cc1noc(/C=C/N(C)C)c1S(=O)(=O)N1CCC(C(=O)O)CC1	8%	15%	1%	-2%	-15%	-3.8%	·	·
COc1ccc(CCNC(=O)Cc2c(C)c3cc4c(C)coc4cc3oc2=O)cc1OC	·	·	·	-1%	-7%	1.2%	10%[46.1 µM]	?
CCOC(=O)c1c(S(=O)(=O)N2CCC(C(=O)Nc3ccc(C)c(Cl)c3)CC2)c(C)n(C)c1C	·	·	·	7%	-11%	0.9%	·	11%[46.1 µM]
CCCN(C(=O)c1cccc(S(=O)(=O)N2CCN(Cc3ccccc3)CC2)c1)C1CCS(=O)(=O)C1 (configuration not stated)	-7%	·	-6%	·	-26%	·	9%	-8%
COc1ccccc1NC(=O)COC(=O)/C=C/c1cccs1	-8%	·	-15%	·	-8%	·	-5%	9%
CCC(C)NC(=O)CSc1nc2c(sc3ccccc32)c(=O)n1CCCN1CCOCC1 (configuration not stated)	-6%	-2%	14%[3.69 µM]	3%	-22%	-8.4%	1%	-1%
CC(=O)N(/N=C/c1cccc(C)c1)c1nc(-c2ccc(Br)cc2)cs1	-3%	-1%	29%	-17%	3%	1.8%	?	?
COc1cc2c(cc1OC)[C@@H](Cc1ccc(OCCC#N)cc1)N(C)CC2	0%	3%	34%	·	-9%	·	?	-28%
COc1ccc2c(C(=O)CN3CCN(c4ccccc4)CC3)c[nH]c2c1	0%	7%	-4%	-4%	8%	-4.2%	1%	?
S=c1[nH]nc(C2CCCCC2)n1/N=C/c1ccncc1	0%	6%	0%	·	-14%	·	0%[46.1 µM]	1%
Cc1ccc(SC(C)C(=O)Nc2ccncc2)cc1 (configuration not stated)	-18%	-128%	-12%	-2%	?	0.0%	-10%	-10%
O=C(NNC(=S)NC(=O)c1ccccc1[N+](=O)[O-])c1ccccc1Cl	-4%	11%	3%	8%	-21%	-12%	?	3%
COc1ccc(-c2nnc(-c3ccccc3O)o2)cc1	0%	-4%	-2%	·	-2%	·	?	?
COc1cccc(C(=O)Nc2nc3ccc(S(=O)(=O)N4CCCC4)cc3s2)c1	·	·	·	-6%	-23%	-8.6%	·	-24%[46.1 µM]
Cn1c(=O)oc2cc(S(=O)(=O)N3CCCC(C(=O)Nc4ccc5c(c4)OCCO5)C3)ccc21 (configuration not stated)	1%	-37%	0%	15%	?	0.7%	0%	·
COc1cccc(OCC(=O)NNC(=O)c2ccc(-c3ccccc3)cc2)c1	2%	13%	7%	25µM*	-9%	0.7%	-1%	-1%
C=Cc1ccc(CN2CCCN(Cc3ccc(Cl)cc3)S2(=O)=O)cc1	-4%	-2%	3%	·	3%	·	·	·
CC(OC(=O)c1ccco1)C(=O)Nc1ncc(Cl)cc1Cl (configuration not stated)	1%	·	3%	·	-14%	·	-17%	5%
CCOc1ccc(NC(=O)CCn2cnc3onc(-c4ccc(F)cc4)c3c2=O)cc1	·	·	·	2%	?	-2.0%	·	20%[46.1 µM]
CCOc1ccc(C(=O)c2cn(Cc3ccccc3)c3c(F)cc(F)cc3c2=O)cc1	·	·	·	2%	-17%	-1.2%	-6%[46.1 µM]	0%[46.1 µM]
CC(C)(C)NC(=O)COC(=O)/C=C/c1ccccc1[N+](=O)[O-]	-4%	1%	-12%	-7%	0%	-0.2%	-30%[46.1 µM]	-10%
Cc1cc(OC(=O)c2ccco2)c2c(C)cc(=O)oc2c1	·	2%	-2%	0%	11%	3.7%	2%	-5%
Cc1cccc(OCCC(=O)NCC(c2ccco2)N2CCCCC2)c1 (configuration not stated)	-3%	-3%	-6%	-4%	-3%	2.2%	-8%	-7%
COc1ccc(-c2nc3ccccc3[nH]2)cc1	-29%	-158%	?	-5%	·	-1.1%	7.3µM*	?
CCN(CC(=O)Nc1ccc2c(c1)OCCO2)S(=O)(=O)c1cccs1	22%	?	-5%	-1%	32%[activator]	-1.9%	?	28%
CC(C(=O)NCCCc1ccccc1)c1ccc([N+](=O)[O-])cc1 (configuration not stated)	-1%	·	9%	·	?	·	19%[46.1 µM]	19%
Nn1c(-c2cccc([N+](=O)[O-])c2)nc2ccccc2c1=O	2%	14%	13%	·	-18%	·	-5%[46.1 µM]	11%[46.1 µM]
NNc1nc2c(-c3cccc(C(F)(F)F)c3)nnn2c2ccccc12	-4%	1%	-4%	·	18%	·	?	?
COc1ccccc1OCCCCn1ncc2ccc(OC)c(OC)c2c1=O	-1%	-31%	-1%	·	-2%	·	·	·
O=C(O)CC1NC(=O)N(c2ccccc2)C1=O (configuration not stated)	3%	2%	·	14%	·	8.2%	2%	·
COc1ccccc1C(=O)NCc1ccccn1	-1%	0%	-3%	·	17%	·	15%	17%
CSc1ncccc1C(=O)OCc1c(F)cccc1Cl	-10%	-7%	-5%	·	4%	·	6%[46.1 µM]	9%
COC(=O)c1ccc(C2/C(=C(/O)c3ccc(OC(C)C)cc3)C(=O)C(=O)N2c2cc(C)on2)cc1 (configuration not stated)	1%	?	3%	?	-15%	-13%	7%&-3%	0%
O=C(NCc1ccccn1)c1ccc(S(=O)(=O)Nc2ccccc2F)cc1	7%	9%	3%	·	6%	·	-9%[46.1 µM]	-23%[46.1 µM]

The list continues:
molecule	SARS PLP yeast	NS1 inh	RE007 growth inh	Cruzain noTriton	2A StopGo	Cruzain inh Det	Marburg entry inh	Lassa entry inh
COc1ccc(C2/C(=C(/O)c3ccc4c(c3)CC(C)O4)C(=O)C(=O)N2CCN2CCOCC2)cc1 (configuration not stated)	-3%	-32%	79%	-1%	5%	-0.8%	-4%	-7%
COc1ccc2cc(C(=O)NCc3ccco3)c(=Nc3ccc(C(=O)O)cc3)oc2c1	-6%	-6%	-3%	-8%	?	-5.1%	-12%	18%
COc1ccc(N(CC(=O)Nc2ccc(OC)c(OC)c2)S(=O)(=O)c2ccccc2)cc1Cl	-2%	9%	-2%	·	-18%	·	·	·
CC(C)C(NC(=O)C1CC(=O)N(Cc2ccccc2)C1)c1nc2ccccc2[nH]1 (configuration not stated)	-2%	·	-5%	·	9%	·	-3%[46.1 µM]	7%[46.1 µM]
COCCCNC(=O)c1ccc(Cn2c(=O)c3ccccc3n(CC(=O)Nc3c(C)cccc3C)c2=O)cc1	·	·	·	?	-6%	-4.4%	-7%[46.1 µM]	-1%[46.1 µM]
CCOCCCNC(=O)c1[nH]c2cc(C)ccc2c1Sc1ccc(Cl)cc1	·	·	·	6%	3%	-9.9%	?	2%[46.1 µM]
CN(C)c1ccc(-c2nc3cc(N)ccc3o2)cc1	-16%	2%	?	·	-51%	·	·	·
CC1CCN(S(=O)(=O)c2ccc3c(c2)N(CC(=O)N(C)Cc2ccco2)C(=O)CO3)CC1	1%	-15%	-9%	·	-1%	·	·	·
